gsp ag – qHTS for Agonist of gsp, the Etiologic Mutation Responsible for Fibrous Dysplasia/McCune-Albright Syndrome: qHTS; gsp mutant cells, cAMP HTRF, 30 min; control for the full effect not named in the record; Potency, µM (top dose mostly 76.9 µM), for inactives: at the highest dose activation (cAMP increase), actives largely listed as activators; 340,000 tested, 0.13% active; active = well fitted activation curve with a large enough effect; inconclusive = small, poorly fitted or top-dose-only effect, or another doubt; inactive = no such curve, though single readings can be large or run the other way; cell line not stated here;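 further: phosphodiesterase inhibitor Ro 20-1724 added with compounds to block cAMP breakdown; potency means the concentration at half of the fitted maximal effect; nearly all actives have a fitted effect of over 60% in size; about a fifth of the inactives were tested at one dose only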
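Cells stably selected in G418 were plated at 2000/well, grown 16-24 hr, then given compounds in DMSO with the PDE inhibitor […] (300 uM solution added) for 30 min at 37C; cAMP was read by HTRF.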
TRPML1 ag – qHTS for Agonists of the Human Mucolipin Transient Receptor Potential 1 (TRPML1) | TRPML1-expressing cells, Ca2+ dye fluorescence, FDSS; host cell line not named in the record; reference of the full effect not given here | activation, % (no concentration beside the values) | 410,000 tested, 0.12% active; in the data active = activation above about 50%; inconclusive = about 30% to 50%; inactive = below about 30%; further: 0% is about no effect; the text of the record puts the active cut at 80%
Target sequence (Q9GZU1 whole entry, looked up): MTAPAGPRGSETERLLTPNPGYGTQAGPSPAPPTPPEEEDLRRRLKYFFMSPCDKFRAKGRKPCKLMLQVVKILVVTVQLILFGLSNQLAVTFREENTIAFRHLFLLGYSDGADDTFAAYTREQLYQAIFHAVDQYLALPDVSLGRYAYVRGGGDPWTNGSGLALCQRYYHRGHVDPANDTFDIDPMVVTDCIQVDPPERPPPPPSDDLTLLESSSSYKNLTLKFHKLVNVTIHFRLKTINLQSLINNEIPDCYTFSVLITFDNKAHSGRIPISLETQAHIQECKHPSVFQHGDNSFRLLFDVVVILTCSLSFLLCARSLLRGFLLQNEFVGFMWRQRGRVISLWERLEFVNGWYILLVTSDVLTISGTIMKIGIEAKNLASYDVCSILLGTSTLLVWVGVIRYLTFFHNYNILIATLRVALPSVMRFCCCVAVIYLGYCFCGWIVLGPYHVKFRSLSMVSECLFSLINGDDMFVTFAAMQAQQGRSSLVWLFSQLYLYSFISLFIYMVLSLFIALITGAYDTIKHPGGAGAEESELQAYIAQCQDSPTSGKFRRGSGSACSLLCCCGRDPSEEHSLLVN
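Agonist activity was taken from a 110 s kinetic Ca2+ dye read on the FDSS after pinning compounds onto TRPML1-DL cells. The cells were seeded at 1,500/well with Tet inducer, incubated about 16 h, then dye-loaded at room temperature.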
ClpP mod – qHTS Assay for Activators of ClpP; ATP-dependent Clp protease proteolytic subunit (Bacillus subtilis (strain 168)), P80244; purified B. subtilis ClpP, FRET peptide cleavage, 20 min; Potency, µM (top dose mostly 57.5 µM), inactives show at the highest dose activity change, negative = active; 340,000 tested, 1.9% active; AID 651965, 2013; active = well fitted falling curve with a large enough effect; inconclusive = small, poorly fitted or top-dose-only effect; inactive = no such curve, though single readings can be large or run the other way; further: potency means the concentration at half of the fitted maximal effect; the source files actives as falling curves though it sought activators and does not explain the sign; nearly all actives have a fitted effect of over 65% in size; many hits overshoot -100%
Target sequence (P80244 whole entry, looked up): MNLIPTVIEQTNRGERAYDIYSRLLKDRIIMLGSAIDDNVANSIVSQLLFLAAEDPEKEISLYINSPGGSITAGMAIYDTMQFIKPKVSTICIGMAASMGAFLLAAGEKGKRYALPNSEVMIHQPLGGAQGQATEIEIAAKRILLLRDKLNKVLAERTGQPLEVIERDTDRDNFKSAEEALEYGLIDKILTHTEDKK
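ClpP 10 microg/mL final, pH 8 Tris/KCl buffer with BSA, glycerol, Tween-20; compound pinned in; FRET-FV substrate; RT 20 min; Ex320/Em430; ΔFRET vs ADEP 5.8 microM, DMSO, no enzyme.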
Menin MLL FP FL – qHTS Assay for Inhibitors Targeting the Menin-MLL Interaction in MLL Related Leukemias: Competition With Fluorescein Labeled MLL-derived Peptide; AID 1766, 2009; 290,000 tested, under 10 active; FP activity change, % at 61.4 µM; Fluorescence polarization, fluorescein-MLL peptide displacement from menin; inconclusive = falling polarisation curve, or a change in total fluorescence; inactive = total fluorescence flat and polarisation flat or rising; no compound was filed as active; the % refers to the polarisation; negative = inhibition;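 further: % of control where 0% means no effect; inhibitors lower the polarisation; unlabelled MLL peptide was the positive control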
gsp antag – qHTS for Antagonists of gsp, the Etiologic Mutation Responsible for Fibrous Dysplasia/McCune-Albright Syndrome: qHTS | gsp-mutant cells, cAMP HTRF, 30 min; control for the full effect not named in the record | 340,000 tested, 0.4% active | Potency, µM (doses to about 76.9 µM), inactives show at the top dose activity change, negative = inhibition, usual class: inhibitors; active = falling curve of any shape with a large fitted effect; inconclusive = falling curve, mostly with a smaller effect; inactive = flat or rising curve; cell line not stated here;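 further: intracellular cAMP measured with PDE inhibitor Ro 20-1724 present during compound exposure; potency means the concentration at half of the fitted maximal effect; on the % scale 0 is the no-effect control and ±100 the full control effect; nearly all actives have a fitted effect of over 65% in size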
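Cells, 2000/well, grown 16–24 h in DMEM 10% FBS with 0.5 mg/ml G418, then compounds plus […] (300 uM addition stock), 30 min at 37C. cAMP read by HTRF (cAMP-d2 and anti-cAMP antibody-K in lysis buffer) after 30 min RT.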
TRPML1 blocker – qHTS for Inhibitors of the Human Mucolipin Transient Receptor Potential 1 (TRPML1); Mucolipin-1 (Homo sapiens), Q9GZU1; TRPML1-inducible cells, Ca2+ dye fluorescence, FDSS; stronger effect = lower value; inhibition of EC80 agonist-evoked calcium signal; activity change, negative = inhibition, % (no concentration beside the values); 390,000 tested, 0.02% active; AID 624415, 2012; in the data active means activity change below about -50%; inconclusive means about -30% to -50%; inactive means above about -30%;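 further: stimulus is agonist 54-4 at its EC80 concentration; on the % scale 0 is the no-effect control and ±100 the full control effect; compound concentration not given in the record; the text of the record puts the active cut at -80%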
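TRPML1-DL cells, Tet-induced overnight (~16 h, 37 °C) at 1,500 cells/well, were loaded with Ca8 no-wash dye plus quencher for 45-90 min at room temperature. Compounds were pinned during FDSS kinetic reading; agonist 54-4 at EC80 (4 uM final) then added.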
The depositor's hits bear a star; ? = inconclusive; . = not tested or not shown; & = joins results of further samples; [ ] = remark or other dose.

SMILES	gsp ag	TRPML1 ag	ClpP mod	Menin MLL FP FL	gsp antag	TRPML1 blocker
Cc1cc(C)c(-n2c(SCCS(=O)(=O)c3ccc(F)cc3)n[nH]c2=O)c(C)c1	?	0.9	.	-0.1	-8%	14
O=C(NCCc1csc(-c2cccnc2)n1)c1cccc2ccccc12	-39%[inhibitor]	0.6	-12%	-0.6	-3%	1
COC(=O)C1=C(C)N(Cc2ccccc2)C(=NCCN2CCOCC2)N[C@H]1CCc1ccccc1	-25%	0.1	-6.6%	0.5	11%	11
COc1ccc(C(=O)N(Cc2sccc2C)C2CCS(=O)(=O)C2)cc1Cl (centres undefined)	.	0.4	2.0%	.	.	-5
CCc1ccc(NC(=O)Cn2c(=O)nc(-c3ccccc3F)c3cc(Cl)ccc32)cc1	.	1.2	-0.7%	.	.	-15
S=c1sc2c(N3CCN(Cc4ccccc4)CC3)ncnc2n1-c1ccccc1	-2%	7.3	1.7%	2.6	1%	1
CCn1c(O)c(/C=N/N=C/c2ccc(OC)cc2)c2cc(C3=NNC(=O)CC3)ccc21	2%[15.4 µM]	0.7	.	?	6%	11
COc1ccc(-c2cc(C(F)F)n3ncc(C(=O)N4CCN(C(=O)c5ccco5)CC4)c3n2)cc1	-25%	0.1	5.2%	2.6	-8%	24
CC1CCN(c2ccc3nnc(CCC(=O)N4CCCCC4)n3n2)CC1	?	-0.8	-2.9%	-1.7	-9%	-10
CCOC(=O)N1CCC(Nc2c(N3CCN(c4cccc(C(F)(F)F)c4)CC3)c(=O)c2=O)CC1	-9%	-0.6	0.6%	1.9	?	8
Cc1ccc(C(=O)CC2(O)C(=O)N(C)c3ccc(Br)cc32)c(C)c1 (centres undefined)	22%	-0.3	-0.6%	4.8	4%	-5
Cc1cccc2cc(C#N)c(SCc3nnc(-c4ccccc4[N+](=O)[O-])o3)nc12	2%	0.9	-11%	2.4	11%	8
O=C(CN1C(=O)CCSc2ccc(S(=O)(=O)N3CCOCC3)cc21)Nc1cccc(F)c1	-1%	0.0	-0.9%	4.7	11%	1
COC(=O)c1c(NC(=S)Nc2ccc(C(=O)N3CCOCC3)cc2)sc2c1CCC2	?	1.0	-2.1%	-0.2	-11%	-2
COc1ccc(CC(NC(C)=O)C(=O)NC2CCN(S(=O)(=O)c3ccc(NC(C)=O)cc3)CC2)cc1OC (centres undefined)	-10%	0.6	.	-2.2	16%	6
Cc1oc2cc3oc(=O)c(CC(=O)O)c(C)c3cc2c1-c1ccccc1	-7%	1.0	-7.2%	-5.3	-17%	3
CC(C)[C@H](NC(=O)OCc1ccccc1)C(=O)OCC(=O)N1CCN(c2ccc(F)cc2)CC1	?	0.5	-3.0%	.	-11%	37
CCN(CC)CCN1C(=O)c2ccccc2NC1c1ccc(C)cc1 (centres undefined)	?	2.7	32µM*	5.3	11%	7
Cc1cccc(N2CCN(CC(=O)NCc3ccc(Cl)cc3)CC2)c1C	17%	0.7	.	-3.5	-20%	-2
Cc1ccc(NC(=O)C2CC(=O)N(Cc3ccccc3)C2)nc1 (centres undefined)	-12%	0.0	2.7%	.	18%	-2

Quoted at random: 3 compounds from above.
SMILES	gsp ag	TRPML1 ag	ClpP mod	Menin MLL FP FL	gsp antag	TRPML1 blocker
COC(=O)C1=C(C)N(Cc2ccccc2)C(=NCCN2CCOCC2)N[C@H]1CCc1ccccc1	-25%	0.1	-6.6%	0.5	11%	11
CCN(CC)CCN1C(=O)c2ccccc2NC1c1ccc(C)cc1 (centres undefined)	?	2.7	32µM*	5.3	11%	7
COC(=O)c1c(NC(=S)Nc2ccc(C(=O)N3CCOCC3)cc2)sc2c1CCC2	?	1.0	-2.1%	-0.2	-11%	-2

The listing continues:
SMILES	gsp ag	TRPML1 ag	ClpP mod	Menin MLL FP FL	gsp antag	TRPML1 blocker
COc1cccc2cc(-c3nnc(-c4ccc(Cl)cc4)o3)c(=O)oc12	.	1.5	-13%	.	.	15
O=c1nc(/C=C/c2ccc(O)c(O)c2)oc2ccccc12	-8%[15.4 µM]	0.5	.	18	-12%	13
COc1cccc(CNC(=O)CN2C(=O)COc3ccc(S(=O)(=O)N4CCCC4)cc32)c1	-13%	-0.9	2.2%	.	-3%	-3
Cc1c(Nc2scc(-c3ccccc3)[n+]2-c2ccccc2)c(=O)n(-c2ccccc2)n1C	11%[15.4 µM]	-0.3	.	-2.8	-43%	-1
O=C(CCNC(=O)c1ccc([N+](=O)[O-])cc1)NCCCN1CCCC1=O	8%[15.4 µM]	0.3	-1.4%	.	-13%	10
CCOC(=O)N1CCN(CC(O)COC(CC)c2ccccc2)CC1 (centres undefined)	-8%	-0.1	1.3%	2.6	8%	5
O=C(O)CCCc1ccc2c(c1)CCc1ccccc1-2	.	-0.7	-2.6%	.	-2%	4
O=C(O)c1cc2nc3c(c(C(F)(F)F)n2n1)CCCC3	0%[15.4 µM]	-0.1	.	0.4	6%	-2
COc1ccc(C(=O)/C=C/C(=O)N(CC(=O)NC2CCCCC2)Cc2ccc(F)cc2)c(O)c1	18%	-0.5	.	-5.2	-17%	-6
Cc1ccc(O)c(NC(=O)c2noc3c2CCCCC3)c1	-1%[15.4 µM]	-0.2&3.0	0.7%	1.5	.	-2&-4
CCC(C)Cn1c(/C=C/c2ccccc2)nc2ccccc21 (centres undefined)	.	1.8	4.1%	.	.	20
O=C1Cc2ccccc2C(c2ccccc2)N1 (centres undefined)	-26%	-0.3	0.4%	4.0	4%	-3
CNS(=O)(=O)c1cccc(C(=O)NCC2(N3CCCCC3)CCCCC2)c1	-21%	1.1	-2.0%	0.3	2%	31
CCOc1ccc(NC(=O)Cn2c(=O)n(CC3CCCO3)c(=O)c3ccccc32)cc1 (centres undefined)	-15%[15.4 µM]	0.9&-0.7	0.0%	-2.5	-5%	11&30
COc1ccccc1CN1CC(C(=O)NCC2CCCO2)CC1=O (centres undefined)	-6%	-0.1	1.4%	2.3	-3%	1
O=C(c1ccc2nccnc2c1)N1CCCC(Nc2ccc(F)c(F)c2)C1 (centres undefined)	?	-0.4	-0.5%	.	1%	15
Cc1ccc(CN2CCCn3nc(C(=O)NCCc4ccccc4C)cc3C2=O)cc1	.	4.8	-1.1%	.	.	-8
CCOC(=O)c1oc2ccccc2c1NC(=O)c1cccs1	-13%	0.7	-9.7%	9.9	39%[activator]	-3
COc1ccc(-n2cnc3cc(NC(=O)c4ccco4)ccc32)cc1	-23%	0.2	0.9%	1.2	?	2
CC(C)(c1ccccc1)c1ccc(OCCCN2CCNCC2)cc1	6%[15.4 µM]	-0.4	.	-0.1	18%	6
CCc1ccc(S(=O)(=O)NCCc2cn3ccsc3n2)s1	-44%	0.1	0.2%	7.2	7%	1
Cc1nnc(SCC(=O)Nc2ccc(N3CCOCC3)cc2)o1	?	-0.2	-1.5%	-3.4	10%	17
Cc1cc(C)c2sc(N(CCCN(C)C)C(=O)COc3ccc(Cl)cc3)nc2c1	18%[15.4 µM]	0.0	.	-0.9	9%	-8
Clc1cccc(OCCCN2CCCC2)c1Cl	-1%	0.2	-2.4%	4.0	-3%	-14
Fc1cccc(Cl)c1C1Nc2cccc3cccc(c23)N1	-14%	.	1.2%	-8.2	-11%	.
O=C(CC1SC(=O)N(c2ccccc2)C1=O)Nc1ccccc1 (centres undefined)	18%	-0.2	3.9%	-0.7	-7%	-3
COc1ccc(C2=CC(c3ccc(OC)c(OC)c3)NC(=S)N2)cc1 (centres undefined)	-15%	-0.1	8.3%	6.0	-3%	2
c1ccc2c(c1)OCC(c1nnc3sc(-c4cnccn4)nn13)O2 (centres undefined)	3%	-0.5	1.3%	5.0	-14%	5
Cc1ccccc1-c1noc(-c2ccc(N3CCCCC3)c([N+](=O)[O-])c2)n1	.	-0.7	-0.5%	.	.	4
CCCCCC(=O)N1CCCCC1	-11%[15.4 µM]	-0.7	.	0.1	4%	-6
CN(C(=O)CC1C(=O)NCCN1C/C=C/c1ccccc1)C1CCOCC1 (centres undefined)	-23%[15.4 µM]	0.9	-2.0%	1.7	-13%	22
COC(=O)c1c(-c2cccs2)csc1NC(=O)c1ccc(C(C)C)cc1	.	-0.6	-18%	.	.	0
c1ccc(CCn2nnnc2C(c2cccnc2)N2CCN(c3nc4ccccc4s3)CC2)cc1 (centres undefined)	-1%	2.6	-8.7%	0.7	-16%	12
CCOc1ccc(CCNC(=O)c2cc3c(=O)oc4ccc(C)cc4c3s2)cc1OCC	.	-1.3	0.5%	.	.	-6
O=C(COC(=O)c1cccnc1Cl)c1cccc(Cl)c1	24%	-0.3	0.3%	2.8	-21%	18
Cc1cc(NS(=O)(=O)c2ccc(Cl)cc2)nn1CC(=O)NCc1ccco1	-2%	1.4	-3.9%	0.3	0%[15.4 µM]	-2
Cc1c(Cc2ccccc2)c(=O)oc2c(C)c(OCc3nn[nH]n3)ccc12	11%	-1.0	-1.8%	2.0	-2%	55
Cc1cc2c(ccc3c2no[n+]3[O-])nn1	0%	-0.2	-0.2%	0.0	-12%	30
CC(NC(=O)c1ccccc1Cl)C(=O)Nc1ccc2c(c1)OCO2 (centres undefined)	-12%	-0.2	-0.6%	.	-6%	-4
Cn1nc(C(F)(F)F)c(C(=O)Nc2ccc(F)cc2F)c1Oc1cccc(Cl)c1	11%	3.0	-0.3%	-1.1	-11%	2
COc1ccc(N2CCN(c3oc(/C=C/c4cc(OC)c(OC)c(OC)c4)nc3C#N)CC2)cc1	.	-0.5	-3.5%	.	.	7
CC(C)CC1Nc2ncnc(N3CCCCC3)c2N(Cc2ccccc2)C1=O (centres undefined)	-10%	4.0	-3.5%	.	-1%	15
CN(Cc1ccccc1)C(=O)CCS(=O)(=O)c1cc2c(cc1Cl)NC(=O)CO2	-58%[inhibitor]	-0.2	-0.1%	-3.8	3%	13
CCCn1c(SCCN2CCOCC2)nc2c1c(=O)n(C)c(=O)n2C	?	0.5	1.2%	-0.9	3%	5
Cc1ccc(OCCOCCN2CCCCC2)c([N+](=O)[O-])c1	-12%[15.4 µM]	-0.5	.	-1.1	-4%	10
O=C(Nc1ccc(Cl)c(Cl)c1)N1CCSC1c1ccco1 (centres undefined)	3%	0.1	5.2%	?	?	-7
Cc1ccc2cc(C#N)c(N3CCCN(S(=O)(=O)c4ccccc4)CC3)nc2c1	-12%	0.3	-13%	3.3	-14%	59

Screens deposited in PubChem by National Center for Advancing Translational Sciences (NCATS).
